# D2 PAM – potentiates the human D2 dopamine receptor allosterically | 360,000 compounds, 0.23% hits | potentiation, % (no concentration beside the values) | AID 624464 | DiscoveRx D2 beta-arrestin cells, luminescence, 90 min; 100% = 57 uM dopamine signal; active = potentiation of 50% or more; inconclusive = 30% to 50%; inactive = 30% or less;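 further: compound concentration not given in the record; tested on top of an EC20 dose of dopamine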
#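 PathHunter D2 cells, attached overnight at 37 deg C, received compound in DMSO plus dopamine at EC20 (50 nM final) for 90 min at 37 deg C. Beta-arrestin recruitment was read as luminescence after 1 h with detection reagent at ambient temperature.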
# D2 agonist – agonists of human D2 dopamine receptor (beta-arrestin). P14416. activation, % (test concentration not listed). 360,000 compounds, 0.084% hits. AID 624465. DiscoveRx PathHunter D2 beta-arrestin, luminescence, 90 min; 100% = 57 uM dopamine signal; in the data active = activation above about 40%; inconclusive = about 15% to 40%; inactive = below about 15%; further: compound concentration not given in the record; the text of the record calls up to 30% inactive
#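 DiscoveRx PathHunter D2 beta-arrestin cells (2,100/well) attached overnight, then compound-stimulated 90 min at 37 C in HBSS/10 mM HEPES/0.1% Tween-20 buffer; beta-galactosidase complementation read by luminescence after 1 h at ambient temperature. Dopamine 57 uM final (EC100) as control.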
# Sfp inh – blocks B. subtilis Sfp PPTase activity; Q9F4F7; Biochemical Sfp PPTase activity, qHTS; Potency, µM, without a hit: max response, negative = inhibition, most hits filed as inhibitors; 310,000 compounds, 3.5% hits; active means well fitted inhibition curve with a large enough effect; inconclusive means small, poorly fitted or top-dose-only effect, or another doubt; inactive means no such curve, though single readings can be large or run the other way;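 further: the enzyme is Sfp with the accession as filed and its product quenches rhodamine fluorescence; potency means the concentration at half of the fitted maximal effect; 0% = enzyme reaction without inhibitor and -100% = no enzyme wells; top concentration of the series not given in the record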
#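 Fluorescence-quenching assay with 15 nM Sfp, 5 uM rhodamine-CoA and 12.5 uM BHQ-2-labelled ybbR peptide in pH 7.6 Hepes/MgCl2 buffer. Enzyme was pre-incubated with compound for 15 min at room temperature. Rate was taken from the 30-min fluorescence change (525/598 nm).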
# CtBP-E1A blk – CtBP/E1A binding inhibition. AlphaScreen GST-E1A/His-CtBP binding, 1536-well; stronger effect = lower value; control for the full effect not named in the record. activity change, % (no concentration beside the values). 340,000 compounds, 0.49% hits; in the data active means activity change below about -65%; inconclusive means about -30% to -65%; inactive means above about -30%; further: on the % scale 0 is the no-effect control and ±100 the full control effect
#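 GST-E1A and His-tagged CtBP (125 nM each as 5X stock) were preincubated with pin-transferred compound for 2 h at 37 °C in the dark, then glutathione donor and nickel acceptor beads were added for 1 h before AlphaScreen reading.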
# Six1-Eya2 inh – inhibitors of human Six1/Eya2 interaction | AID 651725 | AlphaScreen GST-Six1/His-Eya2 binding, biochemical; stronger effect = lower value; control for the full effect not named in the record | 360,000 compounds, 0.56% hits | activity change, % (test concentration not listed) | Q15475+O00167; in the data active = activity change below about -65%; inconclusive = about -30% to -65%; inactive = above about -30%; further: on the % scale 0 is the no-effect control and ±100 the full control effect
#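 AlphaScreen luminescence read after one hour at 37 °C in darkness. Pin-transferred compounds met GST-Six1 and His-Eya2 protein (5X stock 250 nM/500 nM) plus glutathione donor and Ni-chelate acceptor beads (5X, 50 ug/mL).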
# PINK1 expr mod – PINK1 expression modulation. PINK1 immunofluorescence, high-content cytometry, 24 h. Potency, µM (top dose mostly 76.6 µM), without a hit: at the top dose activation (PINK1 increase), most hits filed as activators. 410,000 compounds, 0.2% hits. AID 624263; active = well fitted activation curve with a large enough effect; inconclusive = small, poorly fitted or top-dose-only effect; inactive = flat fitted curve, though single readings scatter; cell line not stated here;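 further: potency means the concentration at half of the fitted maximal effect; % of control where 0% means no effect; nearly all actives have a fitted effect of over 65% in size; a mitochondrial uncoupler was the plate control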
#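 Cells are seeded, rested 12 hours, then given compound at five concentrations or DMSO for 24 hours. After fixation, blocking and antibody staining, PINK1 amount and mitochondrial localization are scored; CCCP serves as control.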
# TRPV1 PAM – potentiators of human vanilloid receptor 1 (TRPV1); Q8NER1; TRPV1-expressing cells, Fluo-8 calcium influx, capsaicin EC20 potentiation; host cell line not named in the record; control for the full effect not named in the record; potentiation, % at 8.33 µM; 320,000 compounds, 0.02% hits; AID 540277; active means potentiation above 80%; inconclusive means 30% to 80%; inactive means below 30%; further: 0% is about no effect
# Target sequence (Q8NER1 whole entry, looked up): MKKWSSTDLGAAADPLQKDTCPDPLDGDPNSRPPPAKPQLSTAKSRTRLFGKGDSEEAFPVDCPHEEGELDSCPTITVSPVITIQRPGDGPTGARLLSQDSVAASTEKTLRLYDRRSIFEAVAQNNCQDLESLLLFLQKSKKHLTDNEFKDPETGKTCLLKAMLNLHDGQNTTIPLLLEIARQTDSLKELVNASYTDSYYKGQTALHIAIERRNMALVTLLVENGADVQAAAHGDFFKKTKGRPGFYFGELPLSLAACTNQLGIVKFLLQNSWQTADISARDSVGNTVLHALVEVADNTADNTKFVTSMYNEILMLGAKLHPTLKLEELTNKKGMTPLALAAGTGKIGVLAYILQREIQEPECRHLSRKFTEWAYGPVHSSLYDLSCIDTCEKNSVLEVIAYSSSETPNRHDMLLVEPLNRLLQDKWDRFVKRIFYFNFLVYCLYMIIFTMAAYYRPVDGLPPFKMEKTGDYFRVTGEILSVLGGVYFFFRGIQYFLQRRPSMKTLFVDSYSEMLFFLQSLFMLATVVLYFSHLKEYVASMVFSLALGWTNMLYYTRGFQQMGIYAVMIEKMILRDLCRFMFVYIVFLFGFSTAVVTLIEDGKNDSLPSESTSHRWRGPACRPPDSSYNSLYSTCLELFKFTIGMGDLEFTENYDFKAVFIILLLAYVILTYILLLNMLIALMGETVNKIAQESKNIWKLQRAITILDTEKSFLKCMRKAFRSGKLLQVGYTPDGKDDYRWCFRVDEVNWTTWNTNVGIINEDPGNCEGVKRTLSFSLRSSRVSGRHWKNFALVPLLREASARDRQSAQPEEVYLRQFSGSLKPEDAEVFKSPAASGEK
#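 TRPV1-expressing cells were cultured overnight at 35.5C and loaded with Fluo-8 calcium dye for 40 to 90 min at room temperature. After a 10 s baseline, compound was added and calcium influx was read kinetically for 3 min (ex 480/em 520 nm).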
# Starred values were filed as active, the others as inactive; ? = inconclusive; . = no result given; & = joins results of further samples; [ ] = dose if it differs, or a comment.
# The line under a structure holds: D2 agonist, Sfp inh, Six1-Eya2 inh, D2 PAM, CtBP-E1A blk, PINK1 expr mod, TRPV1 PAM
> Cc1ccc(NC(=O)c2cccnc2C(=O)Nc2ccc(C)cc2)cc1
  -2.4, -12%, 9, -7, ., 5.6%, 0
> CC1(C(=O)NS(=O)(=O)c2cccc(F)c2)CCN1C(=O)Cc1ccccc1 (stereo unspecified)
  -0.8, ., 2, -1, 4, -0.9%, .
> O=C(NNc1ccccc1)C(=O)NNc1ccccc1
  -0.3, ., -14, -6, 0, 9.9%, .
> CCCCOP(=O)(OCCCC)C1(C)CC(=O)CC(C)(C)C1 (stereo unspecified)
  -0.6, ., 5, -7, 5, -1.7%, .
> COc1ccc(C(CNC(=O)c2oc3ccc(C)cc3c2C)N2CCCCC2)cc1 (stereo unspecified)
  -5.9, -13%, 1, -31, -6, ?, 5
> CC(C)C[C@@H]1NC(=O)N(CCN2CCOCC2)C1=O
  -1.0, 12%, 9, -7, 1, -1.8%, 20
> O=C(Cc1ccc(S(=O)(=O)N2CCOCC2)s1)NCC1CCCCC1
  -2.5, 16%, 5, -8, -4, -3.4%, -5
> O=C(CN1CCCCCC1)Nc1cc([N+](=O)[O-])ccc1Cl
  -2.0, 10%, 14, -12, 5, 2.3%, 1
> CCOc1ccccc1N1CCN(C(=O)C(F)(F)F)CC1
  2.0, 0%, 6, 7, 6, 2.3%, 5
> CC1(C(=O)NC2CCc3ccccc32)CCN1CCc1ccccc1 (stereo unspecified)
  -4.1, ., -25, -9, 0, 1.1%, .
> CCN(Cc1ccc(Br)s1)C(=O)CSc1nnc(C2CC2)n1C1CC1
  -4.3, ., 6, -9, -23, 0.6%, .
> CC1CCC(N2CC(=O)N(Cc3ccc4c(c3)OCO4)C(c3ccc(F)cc3)C2=O)CC1 (stereo unspecified)
  -3.1, -3%, -1, -13, -1, -0.7%[38.3 µM], -4
> CC1(c2ccc(Cl)cc2Cl)NC(=O)N(CC(=O)Nc2ccc3[nH]c(=O)[nH]c3c2)C1=O (stereo unspecified)
  -0.5, ., ?, 1, -4, -1.2%, 1
> COc1ccc(/C=C/C(=O)c2ccc(NC(=O)c3cccs3)cc2)cc1OC
  -2.5, -5%, 0, -10, -3, -4.0%, 2
> COc1cccc(CNS(=O)(=O)c2ccc3c(c2)CCN3C(=O)C2CC2)c1
  8.8, -3%, 7, 11, -9, 1.5%, -7
> CC1=C(C(=O)N2CCOCC2)CC(CC(=O)NC2CCCCC2)C(=O)N1Cc1ccc(C(C)(C)C)cc1 (stereo unspecified)
  -4.3, ., 20, -4, -4, 2.5%, .
> CCOC(=O)Nc1ccc(S(=O)(=O)Nc2onc(C)c2C)cc1
  -3.4, ., -1, -4, 2, 0.4%, .
> CCOC(=O)c1c2ccc(OCC(=O)NN)cc2n2ccccc12
  ?, -15%, -22, -35, -3, 0.5%, 4
> COc1cc(OC)cc(C(=O)Nc2ccccc2C(=O)NCc2cccnc2)c1
  3.0, 8%, -14, 6, -23, 2.4%, -5
> CNC(=S)N1C2CCC1CC(NC(=O)NC13CC4CC(CC(C4)C1)C3)C2 (stereo unspecified)
  -1.5, -3%, 1, -10, 6, ., 7

# (continued)
# The line under a structure holds: D2 agonist, Sfp inh, Six1-Eya2 inh, D2 PAM, CtBP-E1A blk, PINK1 expr mod, TRPV1 PAM
> Cc1cc(C)c(S(=O)(=O)N2CCN(C(=O)N(C)C)CC2)c(C)c1
  -1.5, 7.1µM*, 4, -6, -22, -1.3%, -3
> S=C(Nc1ccc2c(c1)OCCO2)Nc1ccc2c(c1)OCO2
  -3.8, -13%, -4, -4, ., 1.9%, 8
> O=C(C[n+]1ccccc1)N/N=C/c1ccco1
  -2.3, 7%, -5, -6, 0, 0.1%, 7
> CCC1(CC)C(=O)C2=C3C1[C@H](C(=O)OC)C=C(C(=O)OC)C[C@H]3[C@H]1C(=O)NC(=O)[C@H]1[C@H]2C (stereo partly specified)
  1.7, -7%, 15, 28, 9, 0.3%, .
> O=C(COc1ccc(S(=O)(=O)N2CCCC2)cc1)NCCC1=CCCCC1
  -1.1, ?, -1, -2, -1, -1.3%[38.3 µM], 0
> O=c1[nH]c(SCc2ccccc2)nnc1-c1ccccc1
  -1.2, 16%, 7, -7, 10, -4.1%, ?
> O=C(Nc1ccccn1)c1ccc2c(=O)n3c(nc2c1)CCCCC3
  -4.3, ., -6, -7, 0, 0.6%, 8
> CC(=O)Nc1ccc(S(=O)(=O)N=S(C)C)cc1
  -5.6, 17%&-7%, 6, -14, -1, 1.0%, 22&-1
> CC(Sc1nnc(C2CC2)n1C1CC1)C(=O)N(C)Cc1cccc(F)c1 (stereo unspecified)
  -3.8, ., 6, -8, ., -2.2%, 0
> COc1ccc(-c2ccc(-c3noc(-c4ccco4)n3)c(OC)n2)cc1
  -2.3, 12%, 5, 4, 2, 5.7%[38.3 µM], -17
> CC1CN(S(=O)(=O)c2ccc(C(=O)OCc3ccc(C#N)cc3)cc2)CC(C)O1 (stereo unspecified)
  -3.0, ., 11, 7, ., 2.0%, -4
> COc1ccc(C2C3=C(CC(C)(C)CC3=O)Oc3ncn(Cc4ccco4)c(=N)c32)cc1 (stereo unspecified)
  -2.4, 10%, -14, -6, -18, -0.5%[38.3 µM], 5
> NC(=O)c1ccc(-n2nnnc2SCC(=O)Nc2ccc(N3CCOCC3)c(Cl)c2)cc1
  -0.4, 10%, -5, -8, -3, 2.2%, 22
> C=CCn1c(C)cc(C(=O)CSc2ccc(NC(C)=O)cc2)c1C
  -2.2, -17%, -15, -3, -4, -0.7%, -11
> CCCc1[nH]nc2c1C1(C(=O)N(CC)c3ccccc31)C(C#N)=C(N)O2 (stereo unspecified)
  -0.6, -1%, 2, -6, 3, 14%[38.3 µM], -7
> CCn1c(N)c(C(=O)NCCCOC)sc1=S
  -0.6, 20µM*, 0, -12, -3, -0.9%, 20
> Cc1c(O)cc2n(c1=O)-c1ccc(Cl)cc1C2(C)C
  0.0, 14%, 2, -14, -3, -0.3%, 2
> CCc1ccccc1NS(=O)(=O)c1ccc(SC)cc1
  -5.2, 14%, 0, -15, 3, -0.2%, 21
> COc1ccc(N(C)S(=O)(=O)c2cccc(C(=O)NC3CCCCCC3)c2)cc1
  -4.9, 16%, -1, -5, -4, -2.2%, -12
> C=C1C[C@@H]2C[C@@H]2CN(S(=O)(=O)c2ccc(C)cc2)[C@@H]1COCc1ccccc1
  ., ., 13, ., 5, 0.4%, .

# More structures.
# The line under a structure holds: D2 agonist, Sfp inh, Six1-Eya2 inh, D2 PAM, CtBP-E1A blk, PINK1 expr mod, TRPV1 PAM
> COc1ccc(CNC(=O)CSc2nnc(C(F)(F)F)n2C)cc1
  3.0, 0%, 0, -15, -11, -0.7%, -1
> S=C1CCSc2ccc(Cl)cc2N1
  -3.8, 12%, 8, -7, 0, 4.0%, 7
> NC(=O)Nc1ccc(C(=O)OCC(=O)N2CCc3ccccc3C2)cc1
  0.0, ., 1, -1, 1, 1.6%, 2
> O=C(CCCC(=O)N(CC(=O)NC1CCCC1)Cc1ccc2c(c1)OCO2)Nc1ccccn1
  -3.4, 5%, -3, 0, 5, -0.9%, -11
> Cc1ccccc1Nc1nc(N)nc(CSc2nnc(-c3ccccc3)n2C)n1
  -5.2, -4%, -15, -8, -2, -1.8%, 7
> C[C@@H]1CN([C@H](C)CO)C(=O)Cc2cc(NS(=O)(=O)c3cn(C)cn3)ccc2O[C@H]1CN(C)S(=O)(=O)c1ccc(Cl)cc1
  0.2, ., 22, ., 2, 0.7%, .
> CCOC(=O)C1CCN(C(=O)Nc2ccc3nccnc3c2)CC1
  0.0, 10%, -7, -11, -7, -1.9%, 12
> O=C(c1ccco1)N1N=C(c2ccc(Br)cc2)CC1(O)C(F)(F)F (stereo unspecified)
  2.9, -89%, -1, -5, -4, 1.1%, -21
> COc1cccc(C2CC(c3ccc(C)cc3)n3ncnc3N2)c1 (stereo unspecified)
  4.5, 5%, 1, 3, 3, 3.2%, -9
> CNc1nc(OCC(F)(F)F)nc(OCC(F)(F)F)n1
  -1.3, ., 0, -2, 10, 2.6%, .
> O=C(O)c1cc(S(=O)(=O)N2CCN(C(=O)c3ccco3)CC2)c(Cl)cc1Cl
  3.0, 10%, 4, -7, -4, 0.5%, 5
> [O-][n+]1c2c(nn1-c1ccccc1Cl)-c1nonc1CC2
  0.0, 4%, 2, 3, 9, 2.6%[38.3 µM], 11
> Cc1cnc(C(=O)OC(C(=O)Nc2cc(C(F)(F)F)ccc2Cl)c2ccccc2)cn1 (stereo unspecified)
  0.0, 9%, 3, -2, -1, 5.3%, -4
> Cc1cc(C)cc(C(=O)NCCn2cc(SCC(=O)N3CCOCC3)c3ccccc32)c1
  2.7, 11%, 10, 4, 0, -1.7%, 29
> O=C(CSc1ccccc1)N1CCCC(Nc2ccccc2)C1 (stereo unspecified)
  -1.7, 6%, -1, -3, 0, -1.1%, -10
> COc1ccccc1/C=C\C=N\n1c(-c2ccc(Cl)cc2)n[nH]c1=S
  -0.4, -29%, -13, -20, -3, 3.4%, 6
> CC1(C)CNC(=O)CC(C)(C)N1
  -7.1, 4%, 2, -3, 4, 0.5%, 5
> O=C(N/N=C/c1ccc(OCc2ccc(F)cc2)cc1)c1ccccc1
  -4.3, 3%, -14, -4, ., 18%, -22
> CC(C)NS(=O)(=O)c1ccc2c(c1)NCC2
  -2.4, 19%, 5, -6, 1, -2.1%, 20

# Screening results deposited in PubChem by National Center for Advancing Translational Sciences (NCATS).
